Screening results from PubChem.
D2 potentiator – human D2 receptor positive allosteric modulation; P14416; DiscoveRx D2 beta-arrestin cells, luminescence, 90 min; 100% = 57 uM dopamine signal; potentiation, % (no concentration beside the values); actives 0.23% (n = 360,000); active = potentiation of 50% or more; inconclusive = 30% to 50%; inactive = 30% or less;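 note: compound concentration not given in the record; tested on top of an EC20 dose of dopamine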
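PathHunter beta-arrestin assay in DiscoveRx D2 cells. Compounds were added with an EC20 of dopamine (50 nM final) for 90 min at 37 deg C. Luminescence was read 1 h after detection reagent, with 57 uM dopamine as the EC100 control.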
D2 agonist – activates the human D2 dopamine receptor | AID 624465 | DiscoveRx PathHunter D2 beta-arrestin, luminescence, 90 min; 100% = 57 uM dopamine signal | actives 0.084% (n = 360,000) | activation, % (no concentration beside the values); in the data active = activation above about 40%; inconclusive = about 15% to 40%; inactive = below about 15%; note: compound concentration not given in the record; the text of the record calls up to 30% inactive
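DiscoveRx PathHunter D2 beta-arrestin cells (2,100/well) attached overnight, then compound-stimulated 90 min at 37 C in HBSS/10 mM HEPES/0.1% Tween-20 buffer; beta-galactosidase complementation read by luminescence after 1 h at ambient temperature. Dopamine 57 uM final (EC100) as control.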
PINK1 modulator – changes PINK1 expression. AID 624263. PINK1 immunofluorescence, high-content cytometry, 24 h. Potency, µM (series often up to 76.6 µM), inactives show top-dose activation (PINK1 increase), most hits filed as activators. actives 0.2% (n = 410,000); active = well fitted activation curve with a large enough effect; inconclusive = small, poorly fitted or top-dose-only effect; inactive = flat fitted curve, though single readings scatter; cell line not stated here;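 note: potency is the fitted concentration of half-maximal effect; % of control where 0% means no effect; nearly all actives have a fitted effect of over 65% in size; a mitochondrial uncoupler was the plate control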
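Fluorescence from anti-PINK1 antibody, together with nuclear and cell stains, was scanned on a laser-scanning cytometer. Before staining, stable-line cells were incubated 24 hours with compounds at 5 concentrations; primary antibody 12 h at 10 degrees C.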
Six1-Eya2 blk – blocks human Six1 binding to Eya2. Q15475+O00167. AlphaScreen GST-Six1/His-Eya2 binding, biochemical; hits give low values; control for the full effect not named in the record. activity change, % (test concentration not listed). actives 0.56% (n = 360,000); in the data active = activity change below about -65%; inconclusive = about -30% to -65%; inactive = above about -30%; note: % is set by controls: 0 for no effect and ±100 for the full control effect; compound concentration not given in the record
Target sequence (O00167 whole entry, looked up): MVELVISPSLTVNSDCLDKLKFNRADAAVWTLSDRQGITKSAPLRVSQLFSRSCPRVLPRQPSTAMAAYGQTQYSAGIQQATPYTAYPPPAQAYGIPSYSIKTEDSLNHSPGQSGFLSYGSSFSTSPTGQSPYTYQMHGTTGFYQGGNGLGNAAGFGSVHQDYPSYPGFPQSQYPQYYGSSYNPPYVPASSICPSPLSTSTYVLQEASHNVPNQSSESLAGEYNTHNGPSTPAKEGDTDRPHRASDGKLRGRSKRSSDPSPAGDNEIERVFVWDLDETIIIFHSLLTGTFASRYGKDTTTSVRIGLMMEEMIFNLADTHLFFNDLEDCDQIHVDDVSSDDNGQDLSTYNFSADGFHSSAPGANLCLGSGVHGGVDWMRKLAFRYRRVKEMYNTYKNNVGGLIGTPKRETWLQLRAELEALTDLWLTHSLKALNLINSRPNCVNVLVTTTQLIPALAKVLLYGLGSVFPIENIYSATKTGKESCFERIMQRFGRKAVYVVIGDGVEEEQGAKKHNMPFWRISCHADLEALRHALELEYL
Target sequence (Q15475 whole entry, looked up): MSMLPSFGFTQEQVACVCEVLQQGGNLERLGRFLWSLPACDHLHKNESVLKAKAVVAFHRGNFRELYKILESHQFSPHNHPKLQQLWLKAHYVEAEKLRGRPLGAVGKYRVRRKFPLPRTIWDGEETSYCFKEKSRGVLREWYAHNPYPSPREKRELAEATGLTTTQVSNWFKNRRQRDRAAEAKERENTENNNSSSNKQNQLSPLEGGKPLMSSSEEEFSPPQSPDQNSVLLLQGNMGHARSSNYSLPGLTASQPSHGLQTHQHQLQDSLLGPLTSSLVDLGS
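Six1/Eya2 binding was read as AlphaScreen signal after compounds were pinned into GST-Six1 plus His-tagged Eya2 (5X stock 250/500 nM) in pH 8.0 Tris/NaCl/TCEP buffer, beads added, then incubated 1 h, 37 C, dark.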
CtBP-E1A inh – CtBP/E1A binding inhibition; AlphaScreen GST-E1A/His-CtBP binding, 1536-well; hits give low values; control for the full effect not named in the record; activity change, % (test concentration not listed); actives 0.49% (n = 340,000); AID 651724; in the data active means activity change below about -65%; inconclusive means about -30% to -65%; inactive means above about -30%; note: % is set by controls: 0 for no effect and ±100 for the full control effect; compound concentration not given in the record
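Steps: dispense buffer (Tris pH 8.0, NaCl 300 mM, TCEP 1 mM, BSA, Tween 20); add 5X protein mix (GST-E1A, His-CtBP, 125 nM each); pin 23 nL compound; 2 h at 37 °C, dark; add 5X beads (50 ug/mL); 1 h; read.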
TRPML1 agonist – human mucolipin-1 channel agonism; Q9GZU1; TRPML1-expressing cells, Ca2+ dye fluorescence, FDSS; host cell line not named in the record; reference of the full effect not given here; activation, % (test concentration not listed); actives 0.12% (n = 410,000); AID 624414; in the data active = activation above about 50%; inconclusive = about 30% to 50%; inactive = below about 30%; note: 0% is about no effect; the text of the record puts the active cut at 80%
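In this qHTS format, compounds were pin-transferred onto Ca8-dye-loaded TRPML1-DL cells induced with Tet overnight, and intracellular Ca2+ fluorescence was recorded kinetically for 110 s after a 10 s baseline. A subsequent 4uM final 54-4 (EC80) addition followed by a second 110 s read served as the antagonist phase.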
Active calls of the source: *; ? = inconclusive; / = not tested or not shown; [ ] = remark or other dose.

canonical_smiles	D2 potentiator	D2 agonist	PINK1 modulator	Six1-Eya2 blk	CtBP-E1A inh	TRPML1 agonist
O=C(CCNS(=O)(=O)c1ccc2ccccc2c1)NCCOc1ccccc1	-9	0.4	-0.2%	0	10	0.3
CCOC(=O)c1c(C)[nH]c(C(=O)NCCc2ccc(OC)c(OC)c2)c1C	-2	2.5	0.4%	9	1	3.4
O=C(Nc1ccccc1C(=O)O)c1cc(S(=O)(=O)N2CCCCC2)c(Cl)cc1Cl	11	5.2	-0.3%	0	-6	1.4
CN1CCN(C(CNC(=O)C(=O)NC2CCCC2)c2ccc(F)cc2)CC1 (stereo unspecified)	-8	-2.7	0.5%	2	10	-0.3
Cc1ccc(N2CCN(c3cc(C)nc4nc(C)nn34)CC2)c(C)c1	9	-4.9	0.0%	-1	-5	0.4
O=[N+]([O-])C(=C1Nc2ccccc2N1)/C(Cl)=C(/Cl)Br	-9	-3.3	0.6%	-18	/	-0.2
Cc1onc(-c2ccccc2Cl)c1C(=O)Nc1cnn(Cc2ccccc2)c1	-5	1.3	0.3%	9	-9	0.2
Cc1cccc(N2CCN(C(=O)CNC(=O)C3CCCCC3)CC2)c1C	14	2.5	-1.3%	2	-12	-0.1
Cc1nc(CCNC(=O)CC2C(=O)NCCN2Cc2ccc(F)cc2)sc1C (stereo unspecified)	-11	-3.3	0.1%	7	0	-0.2
Cc1cc(C)c(-c2cc(NC(=O)CSc3n[nH]c(N)n3)n(-c3ccccc3)n2)cc1C	-4	-1.8	-0.5%	-12	-3	-1.3
COc1ccc(Nc2ccc(N3C(=O)CC(C)C3=O)cc2[N+](=O)[O-])cn1 (stereo unspecified)	2	-3.9	2.5%	0	-3	0.4
COc1ccc(NC(=O)COc2ccccc2C#N)c(S(=O)(=O)N2CCCCC2)c1	2	-2.4	-1.4%	-3	-16	-1.3
CCOC(=O)C1(Cc2cccc(Cl)c2)CCCN(C2CCN(C(C)=O)CC2)C1 (stereo unspecified)	-4	-1.0	3.3%	-12	14	-0.2
Cc1ccc(NC(=O)COC(=O)/C=C/c2cccs2)c(C)c1	-3	-0.5	1.1%	1	-19	-0.1
COc1cc(/C=N\Nc2nncn2N)ccc1OC(C)=O	0	?	0.4%	-5	?	-0.2
CCOC(=O)C1(c2ccccc2)NC(c2ccccc2C)C2C(=O)N(c3ccc4c(c3)OCO4)C(=O)C21 (stereo unspecified)	-19	-4.9	-1.2%	-6	-2	-0.4
COc1ccc(CC(N)c2csc(NC(=O)c3cccc(OC(F)(F)F)c3)n2)cc1 (stereo unspecified)	1	9.2	-0.1%	-10	-19	-0.3
Cc1nc2sccn2c(=O)c1S(=O)(=O)NC(C)c1ccccc1 (stereo unspecified)	-1	-7.2	0.6%	7	-19	0.8
COc1ccc(NC(=O)C2CCC(CNC(=O)[C@@H]3Cc4ccccc4CN3)CC2)cc1 (stereo partly specified)	-14	-3.5	-0.9%	-8	-6	0.6
O=C(c1ccc(CS(=O)(=O)c2c(Cl)cccc2Cl)o1)N1CCCC1	4	-0.7	2.2%	10	2	1.5
COc1ccccc1C1C2=C(CC(C)(C)CC2=O)Nc2nnnn21 (stereo unspecified)	-5	1.6	-0.2%	4	1	1.6
COc1ccc(OC)c(C2=NOC(C(=O)Nc3cc(C)on3)C2)c1 (stereo unspecified)	-2	-5.7	0.5%	0	7	/
Cc1ccc(S(=O)(=O)N2CCOCC2)cc1C(=O)NC1CCCCCC1	-7	3.7	-0.9%	-6	5	-0.1
CCC(C(=O)NCCc1ccc(C)cc1)n1nc(C)c2c(C)n(-c3ccccc3)nc2c1=O (stereo unspecified)	-6	4.8	0.9%	22	2	2.6
CCC1=NN2C(=N)/C(=C\c3ccc(OCCOc4ccc(NC(C)=O)cc4)c(OC)c3)C(=O)N=C2S1	-6	-3.6	-0.4%	-7	-17	-0.7
O=C(Nc1ccccc1N1CCOCC1)c1cc(Cl)c2c(c1)OCO2	-4	0.0	10%	0	-12	2.1
CCCCn1c(N)c(N(CC(C)C)C(=O)C2=NN(c3ccccc3)C(=O)CC2)c(=O)[nH]c1=O	-3	-2.5	2.0%	-1	1	2.5
Cc1ccc(N2C(=O)NC(C(F)(F)F)(C(F)(F)F)C3=C2CC(C)(C)CC3=O)cc1	5	-8.9	5.3%	3	4	-1.0
Cc1cccc(NC(=O)Nc2cc(C)cc(C)n2)c1	-3	-1.0	1.2%	3	/	0.4
O=S(=O)(c1ccc(Cl)s1)N1CCN(CCc2ccccc2)CC1	-8	-5.1	1.6%	-4	5	0.0
O=C(O)c1cc(-c2ccc(Cl)cc2)n[nH]1	-2	5.0	-1.7%	-2	4	0.1
O=C(O)c1cc(Br)ccn1	-10	-0.8	3.1%	?	-24	0.8
CN(C)S(=O)(=O)c1ccc(C(=O)Nc2cc(S(=O)(=O)Nc3ccccc3Cl)ccc2N2CCCCC2)cc1	2	-6.2	5.4%	4	-1	0.8
COCCNC(=O)c1snc2ccc(Cl)cc12	27	0.6	/	7	-5	-0.1
CC(=O)c1cccc(N(CC(=O)NCC2CCCO2)C(=O)CCC(=O)Nc2cc(C)on2)c1 (stereo unspecified)	-4	-2.4	-0.9%	3	5	0.1
CC1(C2CC2)NC(=O)N(CC(=O)N2CCN(c3ccccc3F)CC2)C1=O (stereo unspecified)	-9	-0.7	0.4%	8	-9	0.5
CCCn1c(=O)[nH]c2ccccc21	-21	-1.7	-2.4%	1	5	0.3
CCCc1oc2c(c(=O)c1CC)C(=O)CC(C)(C)C2	-14	-2.2	3.6%[38.3 µM]	1	-3	-0.1
COc1ccc(CC(=O)Nc2nc(-c3ccncc3)cs2)cc1	3	-1.3	0.6%	5	1	1.1
CC(=O)c1ccc(NS(=O)(=O)c2ccc(N)cc2)cc1	2	7.3	-0.5%	-2	0	0.7
COc1ccc(CCN(Cc2cccs2)S(=O)(=O)c2ccc(S(=O)(=O)N3CCC(C)CC3)cc2)cc1OC	-8	-0.9	7.2%	0	-7	-0.3
COc1ccccc1C1=CN(Cc2ccccc2)CCC1=O	-2	1.7	0.8%	-15	0	-0.7
CCOC(=O)C1CCCN(C(=O)c2cc3nc(-c4ccc5c(c4)OCO5)cc(C(F)(F)F)n3n2)C1 (stereo unspecified)	6	2.2	6.2%[38.3 µM]	11	7	1.4
COc1ccc2c(CC(=O)OCC(=O)NC(N)=O)coc2c1	-7	-8.2	3.0%	-2	0	/
Cc1cccc(-c2nnc(SCC#N)n2-c2cccc(Cl)c2)c1	-10	0.3	-0.8%	-2	-6	4.1
CCOC(=O)c1ccc(CNC(=O)C2CCC(=O)N(CCc3ccccc3)C2)o1 (stereo unspecified)	-2	-1.6	0.8%	19	7	0.5
Cc1ccc(NC(=O)CCSc2nnc3ccccn23)cc1	8	-4.5	-0.6%	8	-3	-0.5
CCOC(=O)N1CCC(NCCNC(=O)c2ccc(F)cc2)CC1	-21	-1.4	0.4%	8	7	0.2

Complete entries, quoted from the list. Order of screens: D2 potentiator	D2 agonist	PINK1 modulator	Six1-Eya2 blk	CtBP-E1A inh	TRPML1 agonist
Cc1cccc(-c2nnc(SCC#N)n2-c2cccc(Cl)c2)c1 is listed with -10	0.3	-0.8%	-2	-6	4.1
CCOC(=O)c1ccc(CNC(=O)C2CCC(=O)N(CCc3ccccc3)C2)o1 (stereo unspecified) is listed with -2	-1.6	0.8%	19	7	0.5

Going on with the list.
canonical_smiles	D2 potentiator	D2 agonist	PINK1 modulator	Six1-Eya2 blk	CtBP-E1A inh	TRPML1 agonist
COc1ccc(CCNC2CC(=O)N(CCc3ccc(OC)c(OC)c3)C2=O)cc1OC (stereo unspecified)	-17	1.8	-2.4%	3	5	1.4
O=C(Nc1ccccc1Cl)c1cc(S(=O)(=O)N2CCCCC2)ccc1N1CCOCC1	-5	2.9	0.9%	-8	-21	1.7
Cn1ccnc1C1CCCCN1Cc1nc(-c2ccc(Cl)cc2)no1 (stereo unspecified)	-12	-3.2	-0.2%	0	-2	-0.5
Cc1cc(C(=O)OC(C)C(=O)N2CCc3ccccc32)ccc1[N+](=O)[O-] (stereo unspecified)	-19	-1.1	2.3%	-27	4	1.9
CC(CCN1C(Nc2ccccc2)=NC[C@@H]1Cc1ccccc1)c1ccccc1 (stereo partly specified)	-16	-0.3	2.3%	-2	0	0.2
N#Cc1c(N)n(CCNC(=O)c2ccc(Cl)cc2)c2nc3ccccc3nc12	-2	-2.7	11%	-11	-9	-1.7
Cc1cc(C)nc(N/N=C/C2=C(N3CCOCC3)C(=C\c3ccc(Cl)cc3)/CC2)n1	2	-7.5	14%	2	-5	-0.2
CCc1nc(C(N)=O)c2[nH]c(=O)n(-c3ccc(OC)cc3OC)c2n1	-5	0.3	1.1%	2	/	0.7
Cc1[nH]c2ccccc2c1C(=O)COC(=O)c1ccccc1O	-27	-3.2	4.9%	-3	-2	1.7
Cc1ccc(C(C)C)cc1OCCCCN1CCCC1	-34	-3.3	4.6%	0	1	0.6
CC(Oc1ccc2c3c(c(=O)oc2c1)CCCC3)C(=O)NCC(O)c1ccccc1 (stereo unspecified)	-9	-5.0	0.3%	-7	/	3.0
C=CCOC(=O)COc1ccc2c(C)c(CC)c(=O)oc2c1	-2	-1.8	-1.2%	3	14	2.7
C=CCOn1c(=O)c(=O)n(OCc2ccccc2)c2ccccc21	-1	2.3	-0.6%	5	5	0.2
COc1ccc(NC(=O)c2cccc(Cl)c2)c[n+]1[O-]	-7	-1.1	3.1%	2	7	-1.0
Cn1nc(-c2ccccc2)c2nc3ccccc3nc21	14	-3.6	13%	29	16	12
COc1nc(C)ccc1-c1noc(-c2cccnc2)n1	0	-3.6	0.4%	-1	4	0.2
CC1(C)CC(O)C(CCC(O)c2ccccc2)C(C)(C)N1 (stereo unspecified)	-12	-2.9	-1.6%	9	0	-0.1
CCCNS(=O)(=O)c1ccc2c(c1)CCCN2C(C)=O	-15	-2.4	-2.9%	7	7	0.3
Cc1cnc(C(=O)Nc2ccc(N3CCOCC3)cc2)cn1	2	1.0	-4.1%[38.3 µM]	3	2	-0.7
Cc1ccc(N2CCN(C(=S)c3ccc(-c4ccccc4[N+](=O)[O-])o3)CC2)cc1	14	-4.4	0.9%	?	?	-0.7
CCNC(=O)CC1C(=O)N(c2ccccc2)C(=O)N1CCc1ccc(OC)c(OC)c1 (stereo unspecified)	-5	-3.2	?	-1	0	-0.1
C=CCSc1nc2c(C(=O)OCC)nnn2c2ccccc12	-2	-1.3	5.4%	-5	0	2.4
COc1cc(-c2nc(N)n[nH]2)cc(OC)c1OC	-10	-3.2	-1.3%	-8	-8	-0.8

Outcome played no part in choosing rows, and some 1.3% of all compounds hit somewhere here.
